High-throughput results as filed in PubChem BioAssay.
ALR H2O2 inh – inhibitors of human ALR sulfhydryl oxidase, primary screen, biochemical, H2O2 detection, HRP-luminol luminescence, single point | inhibition, % (no concentration beside the values) | purified ALR, DTT oxidation | FAD-linked sulfhydryl oxidase ALR (Homo sapiens), P55789 | 290,000 tested, 3.8% active;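 active = mean and each replicate at 75% or more; inconclusive = only one of the two met; inactive = neither met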;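 note: stock transfer was 7.5 nL into about 7.5 µL; 0% = neutral wells and 100% = wells with inactivated enzyme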
Vif TR-FRET – inhibitors of Vif binding to APOBEC3G peptide, primary screen, biochemical, TR-FRET, GST-Vif 1-94, biotin-A3G peptide, dose response retest (AID 1117319); Virion infectivity factor (Human immunodeficiency virus type 1 group M subtype B (isolate …; TR-FRET GST-Vif / biotin-A3G peptide binding; higher % means a stronger effect; test concentration not given here; strong numbers were not always called active; inhibition, %, or IC50 in µM where a hit was titrated; 260,000 tested, 0.57% active;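 active = above the screen mean plus three standard deviations and confirmed in dose response; inconclusive = results disagree or hit not tested in dose response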;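 note: Vif residues 1-94 fused to GST binding biotinylated APOBEC3G peptide 110-148; 0% = full assay without inhibitor and 100% = GST in place of GST-Vif; retest series ran down from 100 µM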
LANA-H2B inh – blockers of LANA interaction with H2A/H2B – biochemical, FP readout, HTS, primary screen | Protein LANA1 (Human herpesvirus 8 type P (isolate GK18)), Q9QR71 | cell-free LANA-H2A/H2B peptide, fluorescence polarization | inhibition, % (no concentration beside the values) | 320,000 tested, 0.6% active; in the data active = inhibition mostly above about 10%, no sharp cut-off; inactive = mostly below about 6.7%;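 note: stock transfer was 7.5 nL into about 10 µL; 0% = median of vehicle wells and 100% = median of positive control wells; one replicate is shown; the record names a cut of 25% in any replicate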
Target sequence (Q9QR71 whole entry, looked up): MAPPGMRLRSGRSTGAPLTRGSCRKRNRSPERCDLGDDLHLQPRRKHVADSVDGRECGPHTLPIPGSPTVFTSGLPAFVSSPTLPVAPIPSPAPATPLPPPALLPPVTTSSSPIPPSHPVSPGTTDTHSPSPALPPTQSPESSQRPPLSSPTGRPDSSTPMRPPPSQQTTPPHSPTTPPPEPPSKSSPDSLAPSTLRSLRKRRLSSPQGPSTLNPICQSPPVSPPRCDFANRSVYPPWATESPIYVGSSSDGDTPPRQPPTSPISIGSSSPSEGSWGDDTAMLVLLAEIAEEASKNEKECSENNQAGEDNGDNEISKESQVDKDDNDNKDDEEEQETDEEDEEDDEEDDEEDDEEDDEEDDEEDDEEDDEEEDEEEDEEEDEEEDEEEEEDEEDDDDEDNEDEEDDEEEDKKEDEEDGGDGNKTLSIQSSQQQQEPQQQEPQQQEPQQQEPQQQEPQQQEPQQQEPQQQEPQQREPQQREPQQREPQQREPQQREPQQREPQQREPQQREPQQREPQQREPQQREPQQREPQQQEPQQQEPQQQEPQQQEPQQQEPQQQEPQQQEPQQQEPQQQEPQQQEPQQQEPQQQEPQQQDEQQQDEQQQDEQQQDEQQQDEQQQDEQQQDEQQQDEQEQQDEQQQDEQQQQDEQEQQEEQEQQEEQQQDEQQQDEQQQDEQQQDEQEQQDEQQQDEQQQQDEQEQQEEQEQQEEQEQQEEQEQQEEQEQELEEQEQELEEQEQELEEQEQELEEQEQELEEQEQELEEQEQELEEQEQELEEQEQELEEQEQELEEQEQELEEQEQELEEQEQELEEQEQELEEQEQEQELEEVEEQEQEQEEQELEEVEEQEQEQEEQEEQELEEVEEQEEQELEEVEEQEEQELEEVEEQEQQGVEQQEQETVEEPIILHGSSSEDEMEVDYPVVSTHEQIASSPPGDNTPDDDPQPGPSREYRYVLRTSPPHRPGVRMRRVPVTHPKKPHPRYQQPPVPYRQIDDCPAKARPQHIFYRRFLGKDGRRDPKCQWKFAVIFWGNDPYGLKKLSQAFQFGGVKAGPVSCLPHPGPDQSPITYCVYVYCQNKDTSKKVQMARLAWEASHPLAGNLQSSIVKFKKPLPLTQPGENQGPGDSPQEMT
HNF4A DNA FP – change in binding of human HNF4A to DNA, primary screen, biochemical, fluorescence polarization, FITC-DNA | Hepatocyte nuclear factor 4-alpha (Homo sapiens), P41235 | 1 h | activity change, % at 10 µM | 360,000 tested, 0.3% active | AID 1224865, 2016; in the data active = activity change above about 30%, passing the limit was not always enough;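 note: controls were the assay level and a saturating level of protein; the project sought stronger binding though the title names inhibitors; some compounds called inactive have numbers as strong as hits; positive values seem to mean higher polarization but the record does not say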
B2AR ag – beta2AR agonists driving receptor internalization, primary screen, cell-based, FAP fluorogen, flow cytometry | Beta-2 adrenergic receptor (Homo sapiens), P07550 | Am2.2-beta2AR cells; reference of the scale not given here | response, % (no concentration beside the values) | 340,000 tested, 0.43% active;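 active = response above a set limit, near 3 SD of response in nonfluorescent compounds, cut at about 42% in these data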;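 note: stock transfer was 100 nL into about 11 µL; a reference agonist was the positive control; negative values mostly stem from fluorescent compounds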
Calb FLC – C. albicans growth inhibition with fluconazole, primary screen, CaCi-2 strain, Alamar Blue fluorescence. C. albicans CaCi-2 (fluconazole-resistant clinical isolate) + fluconazole, 48 h. growth inhibition, % (no concentration beside the values). 300,000 tested, 0.57% active;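 active = most replicates above 75%; inconclusive = exactly half above 75%; inactive = most below 75%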;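 note: all wells also contain fluconazole at 8 µg/ml as a sub-toxic cotreatment; 0% = median of DMSO wells and 100% = median of geldanamycin control wells; wells of about 8 µL received 7.5 nL stock; the first replicate is given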
RanGTP-Imp inh – inhibitors of RanGTP-importin-beta interaction, primary screen, biochemical, FRET, CFP-Ran, YFP-importin-beta, homogeneous; Ran GTPase (GTP-bound) - importin-beta complex; cell-free CFP-Ran/YFP-importin-beta FRET ratio; inhibition, % (test concentration not listed); 300,000 tested, 1.1% active;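 active = most replicates above 15%; inconclusive = exactly half above 15%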;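 note: 0% = DMSO wells and 100% = Ran loaded with GDP instead of GTP; wells of about 40 µL received 100 nL stock; the first replicate is given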
* = called active by the depositor; & = joins results of further samples.

Screening COC(=O)c1cccc(C23CC4(C2)[C@H](CN(Cc2ccc(C(F)(F)F)cc2)[C@@H]4c2ccccc2)C3c2ccc(C(F)(F)F)cc2)c1 (stereo not given in full) returned LANA-H2B inh 0.5, Calb FLC -13 and RanGTP-Imp inh -2.6.
Screening Nc1c(N(Cc2ccco2)C(=O)COc2ccccc2)c(=O)[nH]c(=O)n1Cc1ccccc1 returned ALR H2O2 inh -21, LANA-H2B inh 0.7, HNF4A DNA FP 0.5 and B2AR ag -2.
CS(=O)(=O)Nc1ccc(C2=NN(S(C)(=O)=O)C(c3ccc4nccnc4c3)C2)cc1 (stereo not given) was read as ALR H2O2 inh -4, LANA-H2B inh -2.1, HNF4A DNA FP 28, B2AR ag 5, Calb FLC -13 and RanGTP-Imp inh 2.8.
CSCCC(NC(=O)c1occc1C)C(=O)O (stereo not given) was read as ALR H2O2 inh -9, Vif TR-FRET 8%, LANA-H2B inh -8.1, HNF4A DNA FP 0.5, B2AR ag -2, Calb FLC -13 and RanGTP-Imp inh -1.3.
`Cc1ccc(S(=O)(=O)N2CCN(C(=O)c3ccnn3C)CC2)cc1C` gave ALR H2O2 inh -7, LANA-H2B inh -1.8, HNF4A DNA FP 1.4, B2AR ag -2, Calb FLC 3 and RanGTP-Imp inh 4.8.
Screening O=[N+]([O-])c1ccc2c(c1)nnn2-c1ccccc1 returned ALR H2O2 inh -17, Vif TR-FRET -2%, LANA-H2B inh 3.3, HNF4A DNA FP -1.2, B2AR ag -16, Calb FLC 0 and RanGTP-Imp inh -1.8.
`CC1CCCC(C)N1C(=O)COc1ccccc1F` (stereo not given) gave ALR H2O2 inh -1, Vif TR-FRET 5%, LANA-H2B inh -0.2, HNF4A DNA FP 0.6, B2AR ag -1, Calb FLC -31 and RanGTP-Imp inh 2.5.
`CN1CCN(NC(=O)c2cccc(Br)c2)CC1` gave ALR H2O2 inh 33, Vif TR-FRET -4%, LANA-H2B inh -1.6, HNF4A DNA FP 2.4, B2AR ag -2, Calb FLC -3 and RanGTP-Imp inh 0.6.
For CC1CCc2cc(F)ccc2N1C(=O)CSc1nnc2c(n1)[nH]c1ccc(F)cc12 (stereo not given) the results were ALR H2O2 inh -3, Vif TR-FRET 7%, LANA-H2B inh 4.0, HNF4A DNA FP 0.8, B2AR ag -7, Calb FLC 0 and RanGTP-Imp inh -1.7.
Screening COCCCNC(=O)C1CCC(CNS(=O)(=O)c2ccc(OC)cc2)CC1 (stereo not given) returned ALR H2O2 inh 1, Vif TR-FRET -5%, LANA-H2B inh -1.9, HNF4A DNA FP 3.0, B2AR ag -6, Calb FLC 9 and RanGTP-Imp inh 6.7.

Part of the list above in order of molar mass, low to high.
`CN1CCN(NC(=O)c2cccc(Br)c2)CC1` gave ALR H2O2 inh 33, Vif TR-FRET -4%, LANA-H2B inh -1.6, HNF4A DNA FP 2.4, B2AR ag -2, Calb FLC -3 and RanGTP-Imp inh 0.6.
For CC1CCc2cc(F)ccc2N1C(=O)CSc1nnc2c(n1)[nH]c1ccc(F)cc12 (stereo not given) the results were ALR H2O2 inh -3, Vif TR-FRET 7%, LANA-H2B inh 4.0, HNF4A DNA FP 0.8, B2AR ag -7, Calb FLC 0 and RanGTP-Imp inh -1.7.
Screening COC(=O)c1cccc(C23CC4(C2)[C@H](CN(Cc2ccc(C(F)(F)F)cc2)[C@@H]4c2ccccc2)C3c2ccc(C(F)(F)F)cc2)c1 (stereo not given in full) returned LANA-H2B inh 0.5, Calb FLC -13 and RanGTP-Imp inh -2.6.

The list goes on.
`COc1ccc(CN(C)CC(=O)Nc2c(C)cccc2C)c(OC)c1` gave ALR H2O2 inh 4, Vif TR-FRET 0%, LANA-H2B inh -1.7, HNF4A DNA FP -1.9, B2AR ag -4, Calb FLC 13 and RanGTP-Imp inh 0.4.
For CC(C)CCn1c(N2CCCC2)nc2c1c(=O)n(C)c(=O)n2C the results were ALR H2O2 inh 57, Vif TR-FRET 0%, LANA-H2B inh 0.4, HNF4A DNA FP -2.2, B2AR ag 1, Calb FLC -2 and RanGTP-Imp inh -1.3.
`COc1ccc(C2C(=O)c3ccccc3C2=O)cc1` gave ALR H2O2 inh -22, Vif TR-FRET -3%, LANA-H2B inh -24&0.6, HNF4A DNA FP -0.7, B2AR ag -2 and RanGTP-Imp inh 8.3.
`C/C(=N/OC(=O)C1CC1)c1cc(-c2ccc(Cl)cc2)no1` gave ALR H2O2 inh -3, Vif TR-FRET -1%, LANA-H2B inh -1.1, HNF4A DNA FP -2.4, B2AR ag 4, Calb FLC 4 and RanGTP-Imp inh -0.3.
`O=C(NC1CCCCCC1)c1ccco1` gave ALR H2O2 inh -7, Vif TR-FRET -1%, LANA-H2B inh 2.4, HNF4A DNA FP 0.8, B2AR ag 0, Calb FLC 10 and RanGTP-Imp inh -0.7.
CCCN(C(=O)c1cccs1)c1c(N)n(Cc2ccccc2)c(=O)[nH]c1=O was read as ALR H2O2 inh -3, Vif TR-FRET 2%, LANA-H2B inh 1.7, HNF4A DNA FP -0.4 and B2AR ag -2.
Screening CC(C)CCN(C(=O)c1csnn1)C(C(=O)NC1CCCCC1)c1ccc(F)cc1 (stereo not given) returned ALR H2O2 inh -4, Vif TR-FRET -4%, LANA-H2B inh 0.6, HNF4A DNA FP -0.5, B2AR ag -1, Calb FLC 1 and RanGTP-Imp inh 0.3.
For CCOC(=O)C[C@H]1c2ccccc2S(=O)(=O)N1Cc1cc(OC)c(OC)c(OC)c1 the results were ALR H2O2 inh 5, LANA-H2B inh 3.7, HNF4A DNA FP -0.9, B2AR ag 2, Calb FLC 0 and RanGTP-Imp inh -0.8.
Screening FC(F)c1nnc2ccc(Cl)nn12 returned ALR H2O2 inh -1, Vif TR-FRET 4%, LANA-H2B inh -3.0, HNF4A DNA FP 0.8, B2AR ag 19, Calb FLC -16 and RanGTP-Imp inh inconclusive.
For CN(C)S(=O)(=O)N1CCN(c2ccccc2)CC1 the results were ALR H2O2 inh 79*, Vif TR-FRET 19%, LANA-H2B inh -7.2, HNF4A DNA FP -1.7, B2AR ag 8, Calb FLC -1 and RanGTP-Imp inh 1.6.
O=S(=O)(Nc1nc2ccccc2nc1Nc1ccc2c(c1)OCO2)c1ccc(F)cc1 was read as Vif TR-FRET 22%, HNF4A DNA FP 12, B2AR ag 12, Calb FLC -4 and RanGTP-Imp inh 6.0.
Screening CCc1noc(C)c1C(=O)N(C)CC(=O)Nc1ccccc1C(F)(F)F returned ALR H2O2 inh -1, Vif TR-FRET 6%, LANA-H2B inh 6.2, HNF4A DNA FP -1.1, B2AR ag 5, Calb FLC 0 and RanGTP-Imp inh 11.
`C[C@@H]1COC(=O)[C@H](Cc2ccc(F)cc2)C/C=C\C[C@@H](CC(=O)NCCO)C(=O)N1` gave ALR H2O2 inh 2, LANA-H2B inh -3.3, HNF4A DNA FP 2.1 and B2AR ag 5.
N#C/C(=N\Nc1c(Cl)cccc1Cl)C(=O)NN was read as ALR H2O2 inh 98*, Vif TR-FRET -2%, LANA-H2B inh 3.6, HNF4A DNA FP 7.0, B2AR ag 3, Calb FLC 36 and RanGTP-Imp inh inconclusive.
Brc1ccccc1/C=N/Nc1ccccn1 was read as Vif TR-FRET 0%, HNF4A DNA FP -0.6, B2AR ag -3, Calb FLC 2 and RanGTP-Imp inh -0.8.
`O=C(Nn1cnnc1)c1ccc(OC(F)(F)C(F)C(F)(F)F)cc1` (stereo not given) gave ALR H2O2 inh 4, Vif TR-FRET -2%, LANA-H2B inh 2.4, HNF4A DNA FP 0.0, B2AR ag -6, Calb FLC 3 and RanGTP-Imp inh 1.3.
Screening O=C(CSc1nnc(-c2ccco2)o1)c1ccc(F)c(F)c1 returned ALR H2O2 inh 28, Vif TR-FRET -5%, LANA-H2B inh -4.2, HNF4A DNA FP 13, B2AR ag -6, Calb FLC -4 and RanGTP-Imp inh -3.9.
For COc1ccc(C(=O)CSc2nnc(NC(=O)C3CC(=O)N(c4ccccc4)C3)s2)cc1 (stereo not given) the results were ALR H2O2 inh 3, LANA-H2B inh -4.3, HNF4A DNA FP 4.2, B2AR ag 1, Calb FLC 9 and RanGTP-Imp inh 6.1.
For COc1ccc(CCNC(=O)c2cc(-c3ccc4c(c3)OCO4)on2)cc1OC the results were ALR H2O2 inh -1, Vif TR-FRET -2%, LANA-H2B inh -2.2, HNF4A DNA FP 6.4, B2AR ag -4, Calb FLC 0 and RanGTP-Imp inh 0.8.
Screening COc1ccc(CCNCc2ccc(OCc3ccc(Cl)nc3)c(OC)c2)cc1OC returned ALR H2O2 inh -13, Vif TR-FRET 5%, LANA-H2B inh -3.6, HNF4A DNA FP 0.1, B2AR ag -4, Calb FLC -1 and RanGTP-Imp inh 4.3.
For Cc1nc2cc(NC(=O)N3CCCCC3)ccc2n1C the results were ALR H2O2 inh 8, Vif TR-FRET 21%, LANA-H2B inh -1.1, HNF4A DNA FP 1.3, B2AR ag 3, Calb FLC 0 and RanGTP-Imp inh -0.5.
Screening COc1ccc(NC(=O)N2CCN(C(=O)c3ccco3)CC2)c(OC)c1 returned ALR H2O2 inh -14, Vif TR-FRET -5%, LANA-H2B inh 2.7, HNF4A DNA FP 0.9, B2AR ag -6, Calb FLC -3 and RanGTP-Imp inh -0.9.
Screening CC(C)(C)NC(=O)COC(=O)c1snc(C(=O)NC2CCCCC2)c1N returned ALR H2O2 inh -2, Vif TR-FRET -1%, LANA-H2B inh -0.1, HNF4A DNA FP 1.2, B2AR ag 4, Calb FLC 29 and RanGTP-Imp inh 0.6.
O=C1c2cccc3cccc(c23)C(=O)N1c1ccncc1 was read as ALR H2O2 inh -8, Vif TR-FRET inconclusive, LANA-H2B inh -3.3, HNF4A DNA FP 4.2 and B2AR ag 5.
COc1ccc(NC(=O)CSc2nnnn2C)c([N+](=O)[O-])c1 was read as ALR H2O2 inh -13, Vif TR-FRET 5%, LANA-H2B inh -1.6, HNF4A DNA FP -1.1, B2AR ag 14, Calb FLC 23 and RanGTP-Imp inh -2.3.
`O=c1c2cccc3c2c(nn1CN1CCOCC1)-c1ccccc1-3` gave Vif TR-FRET -26%, LANA-H2B inh -3.9, HNF4A DNA FP -6.2, B2AR ag 3, Calb FLC 15 and RanGTP-Imp inh -1.8.
Screening O=C(O)CC(NS(=O)(=O)Cc1ccccc1)c1cccc([N+](=O)[O-])c1 (stereo not given) returned ALR H2O2 inh -14, Vif TR-FRET -7%, LANA-H2B inh 2.5, HNF4A DNA FP 4.8, B2AR ag -12, Calb FLC -2 and RanGTP-Imp inh 0.2.
Screening Cc1ccc(NC(=S)N2CCN(Cc3ccccc3)CC2)c(C)c1 returned ALR H2O2 inh -1, Vif TR-FRET 25%, LANA-H2B inh 0.0, HNF4A DNA FP 2.6, B2AR ag 2, Calb FLC -5 and RanGTP-Imp inh 3.3.
CC1(C)CC(NS(=O)(=O)c2ccccc2)CC(C)(C)N1 was read as ALR H2O2 inh -7, Vif TR-FRET 14%, LANA-H2B inh 12, HNF4A DNA FP 2.1, B2AR ag 0, Calb FLC -7 and RanGTP-Imp inh 5.5.
`NC(=O)c1nn(-c2ccccc2)nc1NC(=O)CN1CCOCC1` gave ALR H2O2 inh -5, Vif TR-FRET 1%, LANA-H2B inh -2.7, HNF4A DNA FP 4.6, B2AR ag -5, Calb FLC 3 and RanGTP-Imp inh 1.7.
For O=C(Cc1ccc(-c2ccccc2)cc1)NCc1cccnc1 the results were ALR H2O2 inh -9, Vif TR-FRET 4%, LANA-H2B inh -0.1, HNF4A DNA FP -1.6, B2AR ag -14, Calb FLC 2 and RanGTP-Imp inh 1.5.
